Screening data as filed in PubChem.
AmpC nodet inh: Promiscuous and Specific Inhibitors of AmpC Beta-Lactamase (assay without detergent); P00811; AmpC nitrocefin hydrolysis, absorbance 480 nm, no detergent; potencies from a single point are estimates; Potency, µM (doses to about 28.7 µM), inactives show at the top dose activity change, negative = inhibition; 71,000 tested, 1.8% active; AID 585, 2007; active = falling curve, for most hits resting on a single point; inconclusive = weak or doubtful change; inactive = flat or rising curve; further: % of control where 0% means no effect; a quarter of the inactives give rising signals
Target sequence (P00811 whole entry, looked up): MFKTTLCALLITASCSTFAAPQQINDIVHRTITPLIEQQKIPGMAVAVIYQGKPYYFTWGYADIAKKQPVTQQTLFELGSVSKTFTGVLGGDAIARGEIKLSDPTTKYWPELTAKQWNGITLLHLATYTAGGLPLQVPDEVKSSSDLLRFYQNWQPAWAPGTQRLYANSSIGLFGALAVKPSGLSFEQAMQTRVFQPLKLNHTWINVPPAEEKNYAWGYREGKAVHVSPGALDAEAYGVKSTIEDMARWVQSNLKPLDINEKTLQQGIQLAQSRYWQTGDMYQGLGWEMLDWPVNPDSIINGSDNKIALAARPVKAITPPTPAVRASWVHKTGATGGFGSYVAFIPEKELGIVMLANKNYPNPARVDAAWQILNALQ
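Enzyme, pH 7.0 phosphate. Compound titrations were pre-incubated with AmpC for 15 min at room temperature before nitrocefin (stock 800 uM) addition; product formation was recorded at 480 nm every 20 s for 4 min.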
Starred values were filed as active, the others as inactive; ! = not confirmed by another sample; [ ] = remark or other dose. Potency means the concentration at half of the fitted maximal effect. A portion of the library; count on the stated rates, not on these rows.

SMILES | AmpC nodet inh
CC(=O)c1c(C)[nH]c(C(=O)OC2CCOC2=O)c1C (stereo unspecified) | -7%
CCOC(=O)c1cccc(NC(=O)CSc2nnc(-c3ccncc3)n2CCCOC)c1 | 48%
Cc1ccc(S(=O)(=O)NC(=NCC(=O)O)c2ccccc2)cc1 | -6%
Cn1c(N)c(C(=O)COC(=O)Cn2cc(C(F)(F)F)ccc2=O)c(=O)n(C)c1=O | 12%
CCBr | -17%
CN1CCN(CC(C)(C)NS(=O)(=O)c2ccc(Cl)cc2)CC1 | -3%
CC1(C)Cc2nc3n[nH]c(N)c3cc2CO1 | 1%
CC(OC(=O)c1cccs1)C(=O)NCC1CCCO1 (stereo unspecified) | -11%
COC(=O)c1ccc(CSc2nnc3ccccn23)o1 | -14%
O=C(Oc1ccccc1)c1ccc(COC(=O)c2cnccn2)cc1 | 52%
c1ccc2sc(SCCSc3nc4ccccc4s3)nc2c1 | -6%[5.75 µM]
O=C(Nc1ccc(Cl)cn1)c1cc2ccccc2o1 | -12%
CCOC(=O)c1cnc(-n2nc(C)cc2C)nc1NCc1ccccc1 | 74%
COc1cccc(-c2nc(CS(=O)CC(=O)NCc3ccccc3)c(C)o2)c1 (stereo unspecified) | 4µM*[single pt active]
O=C(O)C1CCCN1S(=O)(=O)c1cc(Cl)ccc1Cl (stereo unspecified) | 1%
N[C@@H](C(=O)O)c1ccc(P(=O)(O)O)cc1 | -5%
CN(C(=O)c1cccc(N2C(=O)C3CC=CCC3C2=O)c1)C1CCCCC1 (stereo unspecified) | 46%
c1ccc(-c2nc3cc(Oc4ccc5oc(-c6ccccn6)nc5c4)ccc3o2)nc1 | 68%
CC(=NC(C)C)C1=C(O)CCC1=O | 6%
CCn1c(=N)n(CC(O)c2ccco2)c2ccccc21 (stereo unspecified) | -4%
CCOC(=O)c1oc2ccccc2c1NC(=O)COc1cccc(OC)c1 | 0%
Cc1ccnc(N2CCC(C(=O)Nc3ccc(Oc4ccccc4)cc3)CC2)n1 | 4%
CC(=O)Oc1cc2oc(=O)c3c(c2cc1Cl)CCC3 | 2%
C=CCn1c(NC(=O)c2ccc(Br)o2)c(C(=O)OCC)sc1=S | -14%
O=C(OCC(=O)N1CCCC1)c1cccs1 | 1%
C/C(=N\n1nnnc1Nc1ccccc1)c1ccc(N)cc1 | -22%
O=C(OCc1nc2ccccc2s1)c1cnccn1 | -6%
Cc1cccc(OCC(=O)OCC(=O)c2c(N)n(C)c(=O)n(C)c2=O)c1 | 27%
CCc1ccccc1NC(=O)CN(C)Cc1nc(N)nc(Nc2ccccc2C)n1 | 46%
COc1ccc(OC)c(Nc2nc(-c3sc(C)nc3C)cs2)c1 | 128%
CC[N+](CC)(CC)CCOc1cccc(OCC[N+](CC)(CC)CC)c1OCC[N+](CC)(CC)CC | 13µM*!
O=C(NCCOc1ccccc1)c1cc2ccccc2o1 | 9%
C=CCSc1nc(C)c(CC(=O)OCC(C)C)c(=O)[nH]1 | -2%
COc1ccccc1OCC(=O)Nc1ccc(S(=O)(=O)N2CCCCCC2)cc1 | -23%
COc1ccc(OC)c(NC(=O)Cc2coc3ccc(C)cc23)c1 | 8%
O=C(COc1ccccc1)n1nc(-c2ccc(Cl)cc2)nc1NCc1ccco1 | -8%
COc1ccc(S(=O)(=O)NCCc2csc(C)n2)cc1C | 10%
O=C(NCCc1ccccc1)C1CCCN(S(=O)(=O)c2cccnc2)C1 (stereo unspecified) | 3%
CN(C)C(=O)c1c(-c2ccccc2)oc2ccc(O)cc12 | 27%
CCn1c(CC(=O)Nc2ccc(C)cc2)nnc1SCC(=O)NCc1ccccc1 | 38%

An excerpt of these results, comma-delimited:
SMILES,AmpC nodet inh
O=C(NCCOc1ccccc1)c1cc2ccccc2o1,9%
Cn1c(N)c(C(=O)COC(=O)Cn2cc(C(F)(F)F)ccc2=O)c(=O)n(C)c1=O,12%
C=CCSc1nc(C)c(CC(=O)OCC(C)C)c(=O)[nH]1,-2%

The results go on:
SMILES | AmpC nodet inh
COc1ccccc1C(CCN(Cc1cccs1)C(C)=O)c1ccco1 (stereo unspecified) | 74%
Cc1[nH]nc(N=CC2=C(O)CC(C)(C)CC2=O)c1-c1ccc(Cl)cc1 | 100%
COc1ccc(S(=O)(=O)NCCC(=O)NCc2ccccc2)cc1 | -11%
Cc1cc(=O)oc(C)c1C(=O)NCc1c(F)cc(F)cc1F | 3%
Cc1nn(C/C(C#N)=N\O)c(C)[n+]1N | -5%
O=C(c1cnccn1)N1CCC2(CC1)CN(c1ccccc1)C2 | 27%
CCOc1ccc(-c2nnn(CC(=O)c3ccc4c(c3)OCCO4)n2)cc1OCC | 49%
CCOc1ccccc1C1C(C(=O)OC)=CN(C)C=C1C(=O)OC | 18%
O=C(CSc1nnc(Cc2ccccc2)n1Cc1ccco1)NC12CC3CC(CC(C3)C1)C2 | 45%
Cn1c(=O)oc2cc(S(=O)(=O)NCC3CCCO3)ccc21 (stereo unspecified) | -4%
CCCCOC(=O)NS(=O)(=O)c1sc(CC(C)C)cc1-c1ccc(Cn2c(CC)nc3c(C)cc(C)nc32)cc1 | 117%
COc1cc(C(=O)NCC2CCCO2)ccc1OCc1c(C)noc1C (stereo unspecified) | 1%
CC1(N2CCOCC2)CC2(O)C(=[N+]1[O-])CCc1nonc12 (stereo unspecified) | -17%
Cc1ccc(C)c(-n2nnnc2Sc2nnnn2-c2ccccc2)c1 | 3%
COC(=O)CSc1nnc(-c2ccccc2OC)o1 | 1%
Cc1cc(S(=O)(=O)N2CCN(c3c(C)cccc3C)CC2)ccc1F | 0%
Cn1c(=O)c2c([nH]c(=O)n2C)n(C)c1=O | -1%
Cc1oc(/N=C/c2ccc3c(c2)OCO3)c(C#N)c1C | -7%
Cc1cc(N2CCCC2)n2nc(C)nc2n1 | 3%
Cc1cccc(C)c1NC(=O)Cn1c(=O)n(CCC(=O)NCc2ccco2)c(=O)c2sccc21 | 1%
COc1ccc2c(c1)OC13CCN(C)CC1C2C(C(=O)c1ccc(F)cc1)C(=O)N3 (stereo unspecified) | 4µM*[single pt active]
Cc1noc(C)c1CSc1ncnc2ccccc12 | 26%
O=S(=O)(c1ccccc1)N1CCC2(CCN(Cc3ccncc3)CC2)CC1 | 2%
CN1CCOc2cc(S(=O)(=O)Nc3ccc(F)cc3)ccc21 | -18%
O=C(c1ccc(S(=O)(=O)N2CCC(c3nc4ccccc4s3)CC2)cc1)N1CCOCC1 | 94%
COc1cccc(NC(=O)CSc2nc3ccccc3c(=O)n2CCCC(=O)N2CCCC2)c1 | 139%
COCCCNC(=O)CCC(=O)Nc1ccc2nc(N3CCOCC3)cc(C)c2c1 | -2%
NC12CC3CC(CC(C3)C1)C2 | -3%[12.8 µM]
COc1ccc(C(=O)Cn2nnc(-c3cccs3)n2)cc1 | 1%
COC(=O)c1cccnc1-n1c(=O)c2cccnc2n(Cc2cccc(OC)c2)c1=O | 99%
CN(C)c1ccc(-c2cncnc2NCc2cccnc2)cc1 | 8%
COc1cccc(C(=O)N2CCN(C(=O)c3cccc(F)c3)CC2)c1 | 7%
CCn1c(N2CCN(CC(=O)c3c[nH]c4ccccc34)CC2)nc2c1c(=O)[nH]c(=O)n2C | 67%
COc1cc2nc(=S)n3[nH]c(CCn4nc(C)cc4C)nc3c2cc1OC | 74%
O=C(O)c1ccccc1-c1ccccc1C(=O)Nc1ccc2c(c1)Cc1ccccc1-2 | -9%[5.75 µM]
Nc1nc(-c2cccs2)cs1 | -7%[5.75 µM]
Cc1cc(Cl)c(S(=O)(=O)NC(C(=O)O)c2ccccc2)cc1OCC(N)=O (stereo unspecified) | -9%
Oc1c([C@H](Nc2ccccn2)c2ccccc2)ccc2cccnc12 | -12%[5.75 µM]
c1ccc(-c2nc3nonc3c3nc4ccccc4n23)cc1 | -17%
CC1CCCN(C(=O)C(Cc2ccccc2)n2cccc2)C1 (stereo unspecified) | 8%

21 of the compounds above, in CSV form:
structure,AmpC nodet inh
Cc1cccc(C)c1NC(=O)Cn1c(=O)n(CCC(=O)NCc2ccco2)c(=O)c2sccc21,1%
COc1ccc2c(c1)OC13CCN(C)CC1C2C(C(=O)c1ccc(F)cc1)C(=O)N3 (stereo unspecified),4µM*[single pt active]
Cc1noc(C)c1CSc1ncnc2ccccc12,26%
O=S(=O)(c1ccccc1)N1CCC2(CCN(Cc3ccncc3)CC2)CC1,2%
CN1CCOc2cc(S(=O)(=O)Nc3ccc(F)cc3)ccc21,-18%
O=C(c1ccc(S(=O)(=O)N2CCC(c3nc4ccccc4s3)CC2)cc1)N1CCOCC1,94%
COc1cccc(NC(=O)CSc2nc3ccccc3c(=O)n2CCCC(=O)N2CCCC2)c1,139%
COCCCNC(=O)CCC(=O)Nc1ccc2nc(N3CCOCC3)cc(C)c2c1,-2%
NC12CC3CC(CC(C3)C1)C2,-3%[12.8 µM]
COc1ccc(C(=O)Cn2nnc(-c3cccs3)n2)cc1,1%
COC(=O)c1cccnc1-n1c(=O)c2cccnc2n(Cc2cccc(OC)c2)c1=O,99%
CN(C)c1ccc(-c2cncnc2NCc2cccnc2)cc1,8%
COc1cccc(C(=O)N2CCN(C(=O)c3cccc(F)c3)CC2)c1,7%
CCn1c(N2CCN(CC(=O)c3c[nH]c4ccccc34)CC2)nc2c1c(=O)[nH]c(=O)n2C,67%
COc1cc2nc(=S)n3[nH]c(CCn4nc(C)cc4C)nc3c2cc1OC,74%
O=C(O)c1ccccc1-c1ccccc1C(=O)Nc1ccc2c(c1)Cc1ccccc1-2,-9%[5.75 µM]
Nc1nc(-c2cccs2)cs1,-7%[5.75 µM]
Cc1cc(Cl)c(S(=O)(=O)NC(C(=O)O)c2ccccc2)cc1OCC(N)=O (stereo unspecified),-9%
Oc1c([C@H](Nc2ccccn2)c2ccccc2)ccc2cccnc12,-12%[5.75 µM]
c1ccc(-c2nc3nonc3c3nc4ccccc4n23)cc1,-17%
CC1CCCN(C(=O)C(Cc2ccccc2)n2cccc2)C1 (stereo unspecified),8%

Remaining list, next part:
SMILES | AmpC nodet inh
O=C(/C=C\c1ccc(Cl)cc1)N[C@@]12CCC(=O)[C@@H]3Oc4c(O)ccc5c4[C@@]31CCN(CC1CC1)[C@@H]2C5 | 7%
c1ccc(CO[C@H]2NCCN2Cc2ccccc2)cc1 | 9%[5.75 µM]
CCOC(=O)c1ccc2ncc(C(=O)OCC)c(NCCN(C)C)c2c1 | 3.2µM*[single pt active]
COc1ccc(Cl)cc1NC(=O)CSc1nnc(Cc2cccn2C)n1-c1ccc(F)cc1 | 139%
O=c1c2c(nc3nc(Cc4ccccc4)[nH]n13)CCC2 | -2%
Cc1cccn2c(=O)c(C=Nc3ccc(Cl)cc3)c(NCCO)nc12 | 30%
CC1(C)CC(=O)C(C=NCCN2CCN(C(=O)NC34CC5CC(CC(C5)C3)C4)CC2)=C(O)C1 | 110%
Cc1cc(-c2nnc(SCc3ccccn3)o2)no1 | -4%
O=C(CN1CCN(C(=O)c2ccccc2)CC1)Nc1ccc(Br)cn1 | 24%
O=C(NCCCN1CCOCC1)C1(c2ccccc2)CCCC1 | 24%
COc1cc(C)nc(OCCNS(=O)(=O)c2cc(C)ccc2C)n1 | 25%
COc1ccc(NC(=O)COC(=O)c2ccc(Br)o2)cc1OC | 11%
CCOC(=O)c1sc(NC(=O)C2CCCO2)c(C(=O)OCC)c1C (stereo unspecified) | -22%
CCc1nccn1S(=O)(=O)c1ccc(OC)c(OC)c1 | 4µM*[single pt active]
C[C@H](O)C(=O)Nc1c(I)c(C(=O)NC(CO)CO)c(I)c(C(=O)NC(CO)CO)c1I | 4%[12.8 µM]
CS(=O)(=O)N1CCN(Cc2ccccc2C(F)(F)F)CC1 | 32%
Cc1[nH]c2ccccc2c1Cc1nnc(SCC(=O)NCc2ccco2)o1 | 19%
CCCCCCC(=O)N(O)C1CC(=O)N(c2ccc(Br)cc2)C1=O (stereo unspecified) | -16%
COCCCNC(=O)CCn1c(=O)c2ccccc2n(CC(=O)Nc2ccccc2C)c1=O | 5%
CCOc1ccc2nc(NC(=O)CS(=O)(=O)c3ccccc3)sc2c1 | -12%
CCOc1ccc(S(=O)(=O)N2Cc3ccccc3CC2C(=O)NCCCn2ccnc2)cc1 (stereo unspecified) | 78%
CC1(C)CC(=O)C=C(NCCN2CCN(C(=O)Nc3ccc(Cl)cc3)CC2)C1 | 94%
CCn1c(N)nc2c1c(=O)n(C)c(=O)n2C | 4%
Clc1ccc(N2C[C@H]3CC[C@@H](C2)N3)nn1 | 4%
COc1ccc2c(c1)c(CC(=O)O)c(C)n2Cc1ccc(Cl)cc1 | 12%
CCCCOCCOCCSC#N | 6%
Nc1nc(-c2cccnc2)nn1C(=O)CCc1ccccc1 | 28%
